High-throughput results as filed in PubChem BioAssay.
miR-21 FLuc = qHTS Assay for Modulators of miRNAs and/orActivators of miR-21 | HeLa miR-21 FLuc reporter, luciferase, 48 h | Potency, µM (top dose mostly 38.3 µM), without a hit: at the highest dose reporter change, positive = more light | 340,000 tested, under 10 active; active = well fitted rising curve with a large enough effect; inconclusive = small, poorly fitted or top-dose-only effect; inactive = no such curve, though single readings can be large or run the other way;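 further: % of control where 0% means no effect; miR-21 action dims this reporter so a rising signal means less miR-21 action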
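HeLa miR-21-FLuc reporter line, endogenous miR-21; 2000 cells/well in DMEM/10% FBS; compound titration up to ~40uM final, 48 h, 37 degree Celsius; luciferase detection reagent, 15 min lysis, CCD luminescence.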
An asterisk follows results filed as active; ? = inconclusive; [ ] = another dose, or the depositor's remark. Some of the compounds tested (hit frequency here may not be typical).

SMILES | miR-21 FLuc
CN(C)S(=O)(=O)c1ccc2c(c1)N(CC(=O)NCc1cccc(Br)c1)C(=O)CS2 | -4%
COc1ccccc1NC(=O)c1sc2nc3c(cc2c1N)CCCCCC3 | -15%
CCOC(=O)c1[nH]c2ccccc2c1NC(=O)c1ccccc1OC | 26%
Clc1ccc2c(c1)-n1cc(-c3ccccc3)nc1CO2 | -18%
Cc1nn(-c2ccc(N3CCCCC3)nn2)c(C)c1CCC(=O)NCc1ccccc1F | 18%
Cc1nc2nc[nH]n2c(=O)c1NS(=O)(=O)c1ccc(Br)cc1 | 4%
COc1ccc(CNc2ncnc3c2nc2n3CCCC2)cc1 | -2%
Cc1ccc(C)c(NC(=O)Cn2c(=O)n(CCC(=O)NCc3ccc4c(c3)OCO4)c(=O)c3ccccc32)c1 | 2%
Cc1noc2ncnc(NCc3ccc(Cl)cc3)c12 | 27%
CCN(CC)C(=O)Cn1cc(SCC(=O)Nc2ccccc2F)c2ccccc21 | -5%
CCOc1ccccc1CNC(=O)CCc1cn(Cc2ccc(Cl)cc2)c2ccccc12 | 18%
Cc1nc(N2CCCC2)ncc1C(=O)NCc1ccc(F)cc1 | -8%
O=c1c2oc3ccccc3c2n(Cc2ccccc2Cl)c(=O)n1Cc1ccco1 | -1%
Cc1cccc(-c2nc(SCC(=O)NCc3ccco3)c3c(=O)n(C)c(=O)n(C)c3n2)c1 | -1%
Cc1ccc(CNC(=O)c2ccc(-c3nc(CS(=O)c4ccccc4)c(C)o3)cc2)cc1 (stereo not drawn) | 4%
Cn1c(CCNC(=O)c2ccco2)nc2cc(NC(=O)COc3ccc(Cl)cc3)ccc21 | 6%
CS(=O)(=O)N1CCC(N2CCN(Cc3ccccc3)C(=O)C2=O)CC1 | 4%
CCOC(=O)Cn1cc2c(c1-c1ccc(Cl)cc1)c(=O)n(C)c(=O)n2C | -1%
Cc1ccc(-n2ncc(C(=O)Nc3ccc(C)c(F)c3)c2C2CCN(C(=O)OC(C)(C)C)CC2)cc1C | -7%
CCCNC(=O)c1cc2nc(-c3ccc(Br)cc3)cc(C(F)(F)F)n2n1 | -15%
N#Cc1ccccc1Cn1c(=O)n(-c2ccc(F)c(Cl)c2)c(=O)c2sccc21 | 2%
COC(=O)c1cc2oc3ccccc3c2n1CC(=O)Nc1cc(OC)cc(OC)c1 | -30%
CCc1c(CN2CCN(c3ccccc3F)CC2)csc1C | -1%
COCCNC(=O)Cn1nc(N2CCN(c3ccccc3OC)CC2)ccc1=O | 0%
Cc1ccc(NC(=O)Cn2nc(-c3ccccc3)nc(Cc3ccc(Cl)cc3)c2=O)cc1 | 4%
SMILES | miR-21 FLuc
CCCn1c(=N)c(C(=O)NCc2cccnc2)cc2c(=O)n3cc(C)ccc3nc21 | -3%
CCOC(=O)c1ccc(N2CCN(c3cc(C)ccc3C)CC2)c(NC(=O)Nc2ccc(Cl)cc2)c1 | 23%
Cc1cccc(OCC(=O)Nc2ccccc2C(=O)OCc2cc(=O)n3nc(C4CC4)sc3n2)c1 | -1%
CCOc1ccc(-n2c(SCC(=O)N3CCc4ccccc43)nc3c([nH]c4ccccc43)c2=O)cc1 | 0%
CC1=C(C(=O)Nc2ccc(C)cc2C)C(C(C)C)n2nc(SCc3ccccc3Cl)nc2N1 (stereo not drawn) | 0%
Cc1cc(F)ccc1NC(=O)c1c(C)oc2c1C1=NCCN1C=N2 | -1%
O=c1c(N2CCN(c3ccccc3)CC2)csc2ccc(Cl)cc12 | -3%
CC1=C(C(=O)Nc2cccc(C(F)(F)F)c2)C(c2ccccc2)n2ncnc2N1 (stereo not drawn) | -1%
CCOC(=O)c1c(C)[nH]c(C)c1S(=O)(=O)N1CCCC(C(=O)Nc2ccc(C)cn2)C1 (stereo not drawn) | 4%
CSc1ncc(Cl)c(C(=O)Nc2cc(C(F)(F)F)ccc2Cl)n1 | -1%
COC(=O)c1c(-c2ccc(Cl)cc2)noc1N1CCN(c2ccccc2F)CC1 | 5%
Cc1ccc(S(=O)(=O)c2nc(-c3ccccc3)oc2N2CCN(c3ccccc3)CC2)cc1 | 1%
CCOc1ccc2nc(NC(=O)c3cc(=O)c4cc(C)cc(C)c4o3)sc2c1 | -1%
Cc1cc(C)cc(-n2c(SCC(=O)Nc3ccccc3)nc3c(oc4ccccc43)c2=O)c1 | 2%
COc1ccc(N(Cc2ccccc2)C(=O)c2nc(SC)ncc2Cl)cc1 | 20%
CCOc1ccccc1NC(=O)Cn1ncc2c([nH]c3ccccc32)c1=O | -9%
COCCCn1c(=N)c(C(=O)NCc2cccnc2)cc2c(=O)n3cc(C)ccc3nc21 | -2%
Cc1ccc(-n2ncc(C(=O)NCc3cccs3)c2C2CCN(C(=O)OC(C)(C)C)CC2)cc1C | ?
CCc1ccc(NC(=O)N2CC=C(c3c[nH]c4ccccc34)CC2)cc1 | 5%
COc1cccc(NC(=O)c2sc3nc(C)c(C(=O)Nc4ccc(Cl)cc4)c(-c4ccc(Br)cc4)c3c2N)c1 | 1%
Cc1cccc(NC(=O)N2CCN(C)c3ncccc32)c1C | 1%
Cc1ccc(C(=O)NCC(c2ccc3c(c2)OCO3)N2CCOCC2)cc1 (stereo not drawn) | 2%
O=C(CN1C(=O)CC(c2ccco2)Sc2ccccc21)Nc1ccc(C(F)(F)F)cc1 (stereo not drawn) | 0%
O=C(NCCc1ccccc1)c1ccc2c(c1)N(Cc1ccc(Cl)cc1)C(=O)CS2 | ?
Cc1cc(C)n(C(C)CC(=O)Nc2ccc(C)c(N(C)C)c2)n1 (stereo not drawn) | -3%
SMILES | miR-21 FLuc
CCOC(=O)c1c(S(=O)(=O)N2CCCC(C(=O)Nc3cc(C)ccc3OC)C2)c(C)n(C)c1C (stereo not drawn) | 2%
Cc1ccc(CN2CCC(CNc3ncnc4onc(-c5ccc(F)cc5)c34)CC2)cc1 | 9%
CCCCCCc1c(C)c2c(cc(C)c3c(C)c(C)oc32)oc1=O | 4%
CCc1ccccc1Nc1nn2c(=O)c3ccc(C(=O)NCc4cccs4)cc3nc2s1 | 26%
COc1ccccc1NC(=O)C1=C(C)Nc2nc(SCc3ccc(Cl)cc3)nn2C1c1ccccc1Cl (stereo not drawn) | -9%
COc1ccc(-c2nc3scc(CCNS(=O)(=O)c4ccc(C)cc4)n3n2)cc1 | 6%
Cc1ccc(S(=O)(=O)c2cc3cc(C(=O)Nc4ccc(C)cc4C)ccc3oc2=O)cc1 | 3%
Cc1ccc(C(=O)Nc2nc(-c3nnn(-c4cccc(Cl)c4C)c3C)ns2)cc1C | 13%
COc1ccc(Nc2nc3ccc(Cl)cc3nc2-n2nc(C)cc2C)cc1 | -2%
CCn1c(=O)cc(OCC(=O)N2CCN(c3cccc(C)c3C)CC2)c2ccccc21 | ?
Cc1nn(S(=O)(=O)c2ccc(C(C)C)cc2)c(C)c1S(=O)(=O)N1CCCCC1 | 0%
CCOC(=O)c1c(C)[nH]c(C)c1S(=O)(=O)NCC(=O)N1CCN(c2cc(Cl)ccc2C)CC1 | 14%
Cc1ccc(Cl)cc1NC(=O)CCCn1c(=O)c2cccn2c2ccccc21 | -33%
CC(C)(C)C1CCc2nc(NC(=O)Cc3ccccc3)sc2C1 (stereo not drawn) | -36%
CC(=O)Nc1nnc(SCc2cc(=O)c3cccc(C)c3[nH]2)s1 | 0%
O=C(CCn1c(=O)c2cccn2c2cccnc21)Nc1ccccc1Br | -6%
COCc1cc(C)nc2c1C(=O)NC(c1ccc(NC(C)=O)cc1)N2Cc1ccccc1 (stereo not drawn) | -2%
CCOC(=O)c1ccccc1NC(=O)Cn1c(=O)n(Cc2ccc(C(=O)NCc3ccc4c(c3)OCO4)cc2)c(=O)c2ccccc21 | -1%
COc1ccc(-n2cc(C(=O)Nc3ccccc3C#N)c3ccccc3c2=O)cc1 | -18%
COc1cccc(C(=O)Nc2ccc3nc(SCC(=O)N4CCOCC4)sc3c2)c1 | 19%
CCOc1ccc(NC(=O)Cn2cc(C(=O)c3ccccc3)c(=O)c3cc4c(cc32)OCO4)cc1 | 13%
CCc1ccccc1NC(=O)c1sc(-n2nc(C)c(Cc3ccc4c(c3)OCO4)c2C)nc1C | -4%
Cc1ccc(CSC2=NC(C)(C)Nc3ccccc32)c(C)c1 | 29%
CCOc1ccc(-n2nc(CO)c(C(=O)NCC(c3ccccc3)c3ccccc3)n2)cc1 | -1%
COc1ccc(Cl)cc1NC(=O)CSc1ccc2nnc(CCNS(=O)(=O)c3ccccc3)n2n1 | -1%
SMILES | miR-21 FLuc
CCC(C)NC(=O)c1ccc2c(c1)N(Cc1ccccc1)C(=O)c1ccccc1S2 (stereo not drawn) | 1%
COc1cccc(CSc2nc3n(n2)C(CC(C)C)C(C(=O)Nc2ccccc2OC)=C(C)N3)c1 (stereo not drawn) | 0%
Cc1cc(Cl)ccc1OCC(=O)N1CCC(c2nc3ccccc3o2)CC1 | 1%
COc1ccc(N2CCN(S(=O)(=O)CCNC(=O)c3ccc(OC(C)C)cc3)CC2)cc1 | 1%
Cc1ccc(C(=O)c2ccc(C(F)(F)F)cc2)cc1 | -1%
Cc1ccc(C)c(Cn2c(=O)n(Cc3ccc4c(c3)OCO4)c(=O)c3oc4ccccc4c32)c1 | 1%
CNC(=O)C1CCC(Cn2c(=O)c3sccc3n(CC(=O)NCc3ccc(C)cc3)c2=O)CC1 (stereo not drawn) | -7%
Cc1cc2c(c(=O)n1Cc1ccccc1)C1O[C@](CCCCN3C(=O)c4ccccc4C3=O)(Cc3cc(C#N)ccc31)O2 | -3%[7.66 µM]
CCOc1ccc(CCNC(=O)CCn2c(=O)c3cccn3c3ccc(F)cc32)cc1 | -3%
COc1ccc(C(=O)CC2(O)C(=O)N(Cc3ccccc3Cl)c3ccccc32)cc1 (stereo not drawn) | 20%
N#C/C(=C\c1ccccc1F)c1nc2ccccc2c(=O)[nH]1 | -12%
COc1ccccc1C(=O)Nc1ccccc1C(=O)OCc1cc(=O)n2c(C)csc2n1 | -4%
CC1CCC(Nc2nc3c(-c4ccc(Cl)cc4)nnn3c3ccccc23)CC1 (stereo not drawn) | -3%
CC(C)CCNC(=O)c1cccc(-n2cnc3cccnc32)c1 | -1%
CCCOc1cccc(C(=O)Nc2cccc(-c3nc4ncccc4o3)c2C)c1 | 4%
